HTT prom inh – inhibitors of huntingtin promoter activity | HEK293 HTT promoter firefly luciferase reporter (activity 0% = vehicle and -100% = no light), 24 h | 48,000 compounds, 0.93% hits | Potency, µM (titrated, usually from 57.5 µM), for the others: at the top dose activity change, negative = inhibition, actives largely listed as inhibitors; active = well fitted inhibition curve with a large enough effect; inconclusive = small, poorly fitted or top-dose-only effect; inactive = no such curve, though single readings can be large or run the other way; note: nearly all actives have a fitted effect of over 50% in size
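HEK293 Fluc reporter, 2,500 cells/well, 24 h pre-culture; cpds up to 57.5 uM final, 24 h 37 degrees C; Dual-Glo, 10 min RT; normalized vehicle = 0%, zero RLU = -100%.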
PMP22 txn prim – PMP22 gene transcription modulation; S16 Pmp22-F2sN Schwann cells (luciferase reporters placed in the Pmp22 gene), FLuc/NLuc coincidence luminescence, 24 h; Potency, µM (top dose mostly 57.5 µM), without a hit: top-dose activity change, negative = inhibition, hits mostly inhibitors; 43,000 compounds, 2% hits; active = clear falling dose curves in both reporters; inconclusive = both reporters move, but less clearly or upward; inactive = either reporter flat; the % is the NLuc reporter signal; note: % is set by controls: 0 for no effect and ±100 for the full control effect; some results filed as inactive show a strong effect at the top dose
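Schwann cells carrying the coincidence reporter were exposed to library compounds for 24 h at 37C, then lysed and read for FLuc and, after quenching, NLuc luminescence on a CCD imager.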
Numbers without * were called inactive; u = inconclusive; x = no result given; & = joins results of further samples; [ ] = dose if it differs, or a comment. Potency is the fitted concentration of half-maximal effect. The list is partial. The share of hits here may be higher or lower than overall.

Each structure is followed by: HTT prom inh	PMP22 txn prim
COc1nccc(-c2c(-c3ccc(F)cc3)ncn2C2CCC(O)CC2)n1 (stereo not drawn)
→ -2%	x
Cc1cc(Nc2nc(N[C@@H](C)c3ncc(F)cn3)ncc2Cl)n[nH]1
→ u	x
CCn1cc(C(=O)O)c(=O)c2cnc(N3CCNCC3)nc21
→ 7%	x
Cc1cnc(Nc2ccc(CN3CCOCC3)cc2)nc1Nc1cccc(S(=O)(=O)NC(C)(C)C)c1
→ -22%	x
CC(C)(F)C[C@H](N[C@@H](c1ccc(-c2ccc(S(C)(=O)=O)cc2)cc1)C(F)(F)F)C(=O)NC1(C#N)CC1
→ -8%	x
CCCCCC(=O)O[C@]1(C(C)=O)CC[C@H]2[C@@H]3CCC4=CC(=O)CC[C@]4(C)[C@H]3CC[C@@]21C
→ -25%	x
COc1cc(Oc2ccnc3cc(OC)c(OC)cc23)ccc1NC(=O)NC(C)c1nccs1 (stereo not drawn)
→ -14%	x
CCOC(=O)[C@H](CCc1ccccc1)N[C@H]1CS[C@H](c2cccs2)CN(CC(=O)O)C1=O
→ 3%&8%	x
CNC(=O)c1c(F)cccc1Nc1nc(Nc2cc3c(cc2OC)CCN3C(=O)CN(C)C)nc2[nH]ccc12
→ u	x
CC(C)COC(=O)c1ccc(N)cc1
→ 31%	x
Cc1nc2c(-c3ccccc3)c(C)[nH]n2c(=O)c1Cc1ccc(Br)cc1
→ 13µM*	9.5µM*
C[C@H](NCc1ccc(OCc2cccc(F)c2)cc1)C(N)=O
→ u	x
C=CCn1c(=O)n([C@@H]2O[C@H](CO)[C@@H](O)[C@H]2O)c2nc(N)[nH]c(=O)c21
→ -1%	x
CCN(CC)CCNC(C(=O)OCCC(C)C)c1ccccc1 (stereo not drawn)
→ 2%	x
O=C(Cn1c(=O)n(Cc2ccco2)c(=O)c2oc3ccccc3c21)Nc1ccccc1
→ -7%	u
O=c1oc2c(O)c(O)cc3c(=O)oc4c(O)c(O)cc1c4c23
→ -7%	x
Cc1ccc(=O)n(-c2ccccc2)c1
→ 8%	x
COc1ccccc1OCC1CNC(=O)O1 (stereo not drawn)
→ 15%	x
Cc1c(C)n(Cc2ccc(-c3ccccc3C(=O)O)cc2)c2ccc(C(=O)N[C@@H](C)c3ccc([N+](=O)[O-])cc3)cc12
→ -33%	x
Cn1c(=O)c(Oc2ccc(F)cc2F)cc2cnc(NC3CCOCC3)nc21
→ -5%	x
Cn1cc(S(C)=O)c(=O)c2ccc(F)cc21 (stereo not drawn)
→ 0%	x
O=C(CCCCCn1c(=O)c2sccc2n(CC(=O)Nc2cccc(Cl)c2)c1=O)NCc1ccc2c(c1)OCO2
→ -28%	u
Cc1cccc(N2CCN(C(=O)CCC(=O)NNc3nc4ccccc4c4nc(C)nn34)CC2C)c1 (stereo not drawn)
→ -17%	u
CCc1ccc(CCOc2ccc(CC3SC(=O)NC3=O)cc2)nc1 (stereo not drawn)
→ -8%&11%	x
Cc1ccc(NC(=O)C2(c3ccc4c(c3)OC(F)(F)O4)CC2)nc1-c1cccc(C(=O)O)c1
→ u	x
COc1ccc(-c2cc3nccn3c(Nc3ncccc3C(N)=O)n2)cc1OC
→ 4%	x
CCCCCCCCCCCCCCC[C@H](O)[C@@H](N)CO
→ 3%	x
C#Cc1cccc(Nc2ncnc3cc(OC)c(OCCCCCCC(=O)NO)cc23)c1
→ 55%[activator][116 µM]	x
CN1CCc2c(n(Cc3ccc(C(=O)NO)cc3)c3ccccc23)C1
→ u	x
CC12CC3CC(C)(C1)CC(N)(C3)C2
→ -9%&35%	x

Arranged by length of the SMILES (high to low): some entries from above.
Each structure is followed by: HTT prom inh	PMP22 txn prim
CCCCCC(=O)O[C@]1(C(C)=O)CC[C@H]2[C@@H]3CCC4=CC(=O)CC[C@]4(C)[C@H]3CC[C@@]21C
→ -25%	x
CCCCCCCCCCCCCCC[C@H](O)[C@@H](N)CO
→ 3%	x
CC(C)COC(=O)c1ccc(N)cc1
→ 31%	x

Given as a markdown table: part of the list above
| mol | HTT prom inh | PMP22 txn prim |
| --- | --- | --- |
| O=C(Cn1c(=O)n(Cc2ccco2)c(=O)c2oc3ccccc3c21)Nc1ccccc1 | -7% | u |
| O=c1oc2c(O)c(O)cc3c(=O)oc4c(O)c(O)cc1c4c23 | -7% | x |
| Cc1ccc(=O)n(-c2ccccc2)c1 | 8% | x |
| COc1ccccc1OCC1CNC(=O)O1 (stereo not drawn) | 15% | x |
| Cc1c(C)n(Cc2ccc(-c3ccccc3C(=O)O)cc2)c2ccc(C(=O)N[C@@H](C)c3ccc([N+](=O)[O-])cc3)cc12 | -33% | x |
| Cn1c(=O)c(Oc2ccc(F)cc2F)cc2cnc(NC3CCOCC3)nc21 | -5% | x |
| Cn1cc(S(C)=O)c(=O)c2ccc(F)cc21 (stereo not drawn) | 0% | x |
| O=C(CCCCCn1c(=O)c2sccc2n(CC(=O)Nc2cccc(Cl)c2)c1=O)NCc1ccc2c(c1)OCO2 | -28% | u |
| Cc1cccc(N2CCN(C(=O)CCC(=O)NNc3nc4ccccc4c4nc(C)nn34)CC2C)c1 (stereo not drawn) | -17% | u |
| CCc1ccc(CCOc2ccc(CC3SC(=O)NC3=O)cc2)nc1 (stereo not drawn) | -8%&11% | x |
| Cc1ccc(NC(=O)C2(c3ccc4c(c3)OC(F)(F)O4)CC2)nc1-c1cccc(C(=O)O)c1 | u | x |
| COc1ccc(-c2cc3nccn3c(Nc3ncccc3C(N)=O)n2)cc1OC | 4% | x |
| CCCCCCCCCCCCCCC[C@H](O)[C@@H](N)CO | 3% | x |
| C#Cc1cccc(Nc2ncnc3cc(OC)c(OCCCCCCC(=O)NO)cc23)c1 | 55%[activator][116 µM] | x |

Bioassay records: PubChem BioAssay, National Center for Advancing Translational Sciences (NCATS)
